PINK1 modulator: PINK1 expression modulation; hit rate 0.2% among 410,000; Potency, µM (highest dose often 76.6 µM), without a hit: at the highest dose activation (PINK1 increase), usual class: activators; AID 624263; PINK1 immunofluorescence, high-content cytometry, 24 h; active = well fitted activation curve with a large enough effect; inconclusive = small, poorly fitted or top-dose-only effect; inactive = flat fitted curve, though single readings scatter; cell line not stated here;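 further: potency means the concentration at half of the fitted maximal effect; % of control where 0% means no effect; nearly all actives have a fitted effect of over 65% in size; a mitochondrial uncoupler was the plate control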
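Decision-based qHTS: stable cells, 24 h exposure to five compound concentrations, CCCP as control. Fixed cells stained for PINK1 plus nuclear, mitochondrial and cell markers, cytometer read.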
Six1-Eya2 blk: inhibitors of human Six1/Eya2 interaction; Q15475+O00167; AID 651725; AlphaScreen GST-Six1/His-Eya2 binding, biochemical; active compounds read low; control for the full effect not named in the record; hit rate 0.56% among 360,000; activity change, % (concentration not given with the values); in the data active = activity change below about -65%; inconclusive = about -30% to -65%; inactive = above about -30%; further: on the % scale 0 is the no-effect control and ±100 the full control effect
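AlphaScreen luminescence read after one hour at 37 °C in darkness. Pin-transferred compounds met GST-Six1 and His-Eya2 protein (5X stock 250 nM/500 nM) plus glutathione donor and Ni-chelate acceptor beads (5X, 50 ug/mL).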
TRPML1 ag: human mucolipin-1 channel agonism; Q9GZU1; TRPML1-expressing cells, Ca2+ dye fluorescence, FDSS; host cell line not named in the record; reference of the full effect not given here; hit rate 0.12% among 410,000; activation, % (test concentration not listed); in the data active = activation above about 50%; inconclusive = about 30% to 50%; inactive = below about 30%; further: 0% is about no effect; the text of the record puts the active cut at 80%
Target sequence (Q9GZU1 whole entry, looked up): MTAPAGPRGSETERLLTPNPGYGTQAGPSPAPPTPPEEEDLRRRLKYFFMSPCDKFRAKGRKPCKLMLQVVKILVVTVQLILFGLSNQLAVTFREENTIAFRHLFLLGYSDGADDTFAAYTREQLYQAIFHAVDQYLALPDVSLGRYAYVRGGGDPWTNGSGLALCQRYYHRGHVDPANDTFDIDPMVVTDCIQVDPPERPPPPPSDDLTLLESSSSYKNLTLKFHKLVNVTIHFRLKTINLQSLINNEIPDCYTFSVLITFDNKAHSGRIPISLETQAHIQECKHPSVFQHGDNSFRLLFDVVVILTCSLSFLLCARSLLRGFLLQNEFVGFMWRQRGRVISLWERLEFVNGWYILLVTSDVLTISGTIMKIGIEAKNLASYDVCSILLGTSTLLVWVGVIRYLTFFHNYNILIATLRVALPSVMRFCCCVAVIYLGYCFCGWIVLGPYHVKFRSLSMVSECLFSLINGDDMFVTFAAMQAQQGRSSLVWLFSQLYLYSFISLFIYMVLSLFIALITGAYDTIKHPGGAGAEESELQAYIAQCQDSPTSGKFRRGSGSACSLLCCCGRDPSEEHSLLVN
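In this qHTS format, compounds were pin-transferred onto Ca8-dye-loaded TRPML1-DL cells induced with Tet overnight, and intracellular Ca2+ fluorescence was recorded kinetically for 110 s after a 10 s baseline. A subsequent 4uM final 54-4 (EC80) addition followed by a second 110 s read served as the antagonist phase.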
TRPML1 blocker: human mucolipin-1 channel inhibition; activity change, negative = inhibition, % (no concentration beside the values); TRPML1-inducible cells, Ca2+ dye fluorescence, FDSS; active compounds read low; inhibition of EC80 agonist-evoked calcium signal; AID 624415; hit rate 0.02% among 390,000; in the data active means activity change below about -50%; inconclusive means about -30% to -50%; inactive means above about -30%;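 further: stimulus is agonist 54-4 at its EC80 concentration; on the % scale 0 is the no-effect control and ±100 the full control effect; compound concentration not given in the record; the text of the record puts the active cut at -80%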
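Tet-induced TRPML1-DL cells loaded with Ca8 no-wash calcium dye were read kinetically on FDSS. Compound addition was followed by EC80 agonist 54-4 (4 uM final); inhibition was read over 110 s.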
D2 PAM: positive allosteric modulators of human D2 dopamine receptor. P14416. DiscoveRx D2 beta-arrestin cells, luminescence, 90 min; 100% = 57 uM dopamine signal. potentiation, % (no concentration beside the values). hit rate 0.23% among 360,000. AID 624464; active = potentiation of 50% or more; inconclusive = 30% to 50%; inactive = 30% or less;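 further: compound concentration not given in the record; tested on top of an EC20 dose of dopamine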
Target sequence (P14416 whole entry, looked up): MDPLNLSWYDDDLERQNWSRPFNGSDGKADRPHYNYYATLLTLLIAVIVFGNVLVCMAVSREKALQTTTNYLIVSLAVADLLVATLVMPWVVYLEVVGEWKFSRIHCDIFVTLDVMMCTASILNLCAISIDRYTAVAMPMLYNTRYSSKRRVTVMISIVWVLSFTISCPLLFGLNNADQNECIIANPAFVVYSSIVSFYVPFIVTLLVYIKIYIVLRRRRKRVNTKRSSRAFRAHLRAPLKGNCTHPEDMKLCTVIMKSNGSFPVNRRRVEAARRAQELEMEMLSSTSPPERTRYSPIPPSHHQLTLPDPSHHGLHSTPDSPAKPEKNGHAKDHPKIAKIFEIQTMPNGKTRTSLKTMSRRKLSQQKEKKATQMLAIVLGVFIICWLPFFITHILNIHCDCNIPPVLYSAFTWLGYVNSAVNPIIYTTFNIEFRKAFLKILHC
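PathHunter D2 cells, attached overnight at 37 deg C, received compound in DMSO plus dopamine at EC20 (50 nM final) for 90 min at 37 deg C. Beta-arrestin recruitment was read as luminescence after 1 h with detection reagent at ambient temperature.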
D2 ag: agonists of human D2 dopamine receptor (beta-arrestin) | P14416 | DiscoveRx PathHunter D2 beta-arrestin, luminescence, 90 min; 100% = 57 uM dopamine signal | activation, % (concentration not given with the values) | hit rate 0.084% among 360,000; in the data active = activation above about 40%; inconclusive = about 15% to 40%; inactive = below about 15%; further: compound concentration not given in the record; the text of the record calls up to 30% inactive
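DiscoveRx PathHunter D2 beta-arrestin cells (2,100/well) attached overnight, then compound-stimulated 90 min at 37 C in HBSS/10 mM HEPES/0.1% Tween-20 buffer; beta-galactosidase complementation read by luminescence after 1 h at ambient temperature. Dopamine 57 uM final (EC100) as control.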
Numbers without * were called inactive; ? = inconclusive; . = no result given; & = joins results of further samples; [ ] = remark or other dose. Not a hit list, and some 1% of all compounds hit somewhere here.

molecule	PINK1 modulator	Six1-Eya2 blk	TRPML1 ag	TRPML1 blocker	D2 PAM	D2 ag
CCCCC(Sc1nc(N)c(NC(=O)c2ccc(OC)cc2)c(=O)[nH]1)C(=O)O (stereo unspecified)	1.9%	9	0.1	1	-1	-5.6
CCOc1ccc2nc(N(CCCN(C)C)C(=O)c3ccc(C(=O)c4ccccc4)cc3)sc2c1	-1.6%	-23	2.5	3	-54	-8.5
O=C(NCc1nc2ccccc2[nH]1)C1=C[C@H](c2coc3ccccc3c2=O)C[C@H](OCc2ccc(CO)cc2)O1	0.5%	-7	-0.6	5	18	10
CCOc1ccc(-c2cnc(NCc3ccc(C(F)(F)F)cc3)n2C)cc1	8.5%	.	2.5	6	.	.
Cc1nc(C(F)(F)F)ccc1C(=O)N1CCC1(C)C(=O)NS(=O)(=O)c1ccc2ccccc2c1 (stereo unspecified)	2.2%	4	-0.4	.	-4	-3.4
CCCn1c(C)cc(/C=C(\C#N)C(=O)OCC(=O)Nc2cccc(S(N)(=O)=O)c2)c1C	-0.2%	-14	-1.4	-2	-9	-1.2
NS(=O)(=O)c1cccc(NC(=S)NCc2ccccc2)c1	0.1%	0	-0.4	6	-4	2.9
CC(Sc1nccn1C)C(=O)Nc1ccc(C(N)=O)cc1 (stereo unspecified)	4.6%	-2	0.1	13	-11	2.6
COc1ccc2nc3sc(C(=O)Nc4ccccc4F)cc3cc2c1	2.1%	.	-0.8	9	.	.
CCOc1ccc(CNC(=O)Cn2c(=O)c3cccn3c3cccnc32)cc1	-0.5%	.	-0.7	8	.	.

(more compounds)
molecule	PINK1 modulator	Six1-Eya2 blk	TRPML1 ag	TRPML1 blocker	D2 PAM	D2 ag
O=C1CCCN1CCCNC(=S)Nc1ccc(Br)cc1Cl	2.2%	-11	2.6	27	18	-1.6
CNC(=O)CCSc1ccc(C)cc1	23%[38.3 µM]	0	-0.3	3	-6	-1.7
Cc1cnc(C(=O)OC(C)C(=O)Nc2cccc3ccccc23)cn1 (stereo unspecified)	1.3%	2	0.3	19	-16	4.6
Cc1ccc2nc(SCC(=O)NC3CCCC3)[nH]c2c1	2.0%	0	-0.2	16	-5	-2.4
CCCNC(=O)N(C)C[C@@H]1Oc2cc(Br)ccc2S(=O)(=O)N([C@@H](C)CO)C[C@H]1C	-2.0%	13	1.0	-4	-3	8.4
COC(=O)c1ccc(-c2noc(CN(C)Cc3ccncc3C)n2)cc1	0.3%	13	1.3	-17	-3	3.8
CC1=CC(=O)C(C(C)C)=C/C1=N/OS(=O)(=O)c1ccccc1	-0.6%	?	50*	-5	-5	?
O=C(CSc1nnc(-c2c[nH]c3ccccc23)n1CC1CCCO1)Nc1ccc2c(c1)OCCO2 (stereo unspecified)	-0.1%	0	-0.3	5	13	-3.5
CSc1ccc(CCNC(=O)CSc2ccsc2[N+](=O)[O-])cc1	5.3%	-12	0.5	-4	-7	0.1
O=C(CCN1CCc2ccccc2C1)Nc1ccccc1F	1.0%	4	-0.4	-8	-27	-2.0

Continued.
molecule	PINK1 modulator	Six1-Eya2 blk	TRPML1 ag	TRPML1 blocker	D2 PAM	D2 ag
COc1ccc(CNS(=O)(=O)c2ccc3c(c2)NC(=O)C(C)C(=O)N3)cc1 (stereo unspecified)	6.4%	.	-0.1	9	.	.
O=C(NN=Cc1ccccc1O)C(O)c1ccccc1 (stereo unspecified)	1.6%	?	1.2	34	-1	0.3
O=C1c2ccccc2C(=O)N1CC1c2ccccc2CCN1C(=O)C1CCCCC1 (stereo unspecified)	8.6%[38.3 µM]	1	-0.3	7	-3	-3.8
Cc1ccc(C)c(S(=O)(=O)N2CC(=O)Nc3ccccc32)c1	0.7%	3	0.2	2	-15	-2.7
Cn1nc(-c2ccc(C(=O)O)cc2)c2ccccc2c1=O	.	22	-0.4	-12	1	-1.7
COc1cc(-c2noc(C)c2C#CC2(N)CCCCC2)cc(OC)c1OC	4.4%	0	0.1&-0.6	16	-10	-4.1
CC1CCc2nn(CC(=O)NCCN3CCCCC3C)cc2C1 (stereo unspecified)	0.6%	-3	-0.1	-6	-2	6.6
O=C(/C=C/c1cccs1)Nc1scc(-c2ccccc2)c1C(=O)O	0.7%	-21	1.6	3	-9	-7.4
C(=N\N1CCN(Cc2ccccc2)CC1)/c1ccccc1	3.5%	-23	.	.	-31	-2.2
C#CCOCCOCCOCCNc1nc(N2CCN(C(=O)[C@H](CC(N)=O)n3cc([C@@H](N)CC(N)=O)nn3)CC2)nc(N2CCN(C(=O)[C@H](CC(N)=O)n3cc([C@@H](N)CC(N)=O)nn3)CC2)n1	0.9%	?	-0.1	-5	0	-0.8

Next section:
molecule	PINK1 modulator	Six1-Eya2 blk	TRPML1 ag	TRPML1 blocker	D2 PAM	D2 ag
C=CS(=O)(=O)N(Cc1ccc(Cl)c(Cl)c1)C[C@@H](O)CO	3.3%	1	-0.4	-1	-3	-7.2
CC(C)c1ccc(NC(=O)CCNS(=O)(=O)c2ccc3c(c2)CCCC(=O)N3)cc1	-0.8%	.	1.6	-1	.	.
CCN(CC)CCCNC(=O)c1c(C)oc2ncnc(N3CCOCC3)c12	17%	.	-0.3	2	.	.
O=C(c1ccco1)N(Cc1ccco1)Cc1cc2ccccc2[nH]c1=O	4.0%	2	0.3	1	-1	2.7
Cc1ccc(S(=O)(=O)N2CC(=NN=C(N)N)C2)cc1	1.2%	-1	0.3	-6	-1	-2.0
Cc1nc2c(C(=O)NCc3ccc4c(c3)OCO4)c[nH]n2c(=O)c1Cc1ccccc1F	3.4%[38.3 µM]	-16	2.2	?	0	-2.3
Cc1ccc(CC2CC(=O)N(c3ncccn3)C2=O)cc1 (stereo unspecified)	1.6%	2	-0.3	27	1	-0.7
Cc1ccc(NS(=O)(=O)c2cccc(C(=O)NNC(=O)NC3CCCCC3)c2)c(C)c1	1.6%	-9	0.5	-5	-15	-0.8
Cc1c(Cl)cccc1NC(=O)CSc1nc(=O)[nH]c2c1CCC2	0.4%	.	-1.3	-5	.	.
Fc1ccc(-c2csc(-c3ccc(C4SCCS4)cc3)n2)cc1F	7.6%	12	-0.5	0	-10	-3.6

More entries.
molecule	PINK1 modulator	Six1-Eya2 blk	TRPML1 ag	TRPML1 blocker	D2 PAM	D2 ag
Oc1ccc(-c2nc3ccccn3c2NCc2ccco2)cc1	0.4%	-6	0.0	-7	-12	-2.2
CC(C)c1ccc(CC(=O)N2CCC2(C)C(=O)Nc2ccc3c(c2)OCCO3)cc1 (stereo unspecified)	1.4%	-29	-0.3	.	-9	-4.1
COc1cc2c(=O)c(C(=O)c3ccc(C)c(C)c3)cn(Cc3ccccc3)c2cc1OC	1.9%	.	2.2	12	.	.
Cc1ccccc1S(=O)(=O)N1[C@@H](c2ccc(Br)cc2)C(C(=O)O)=CC[C@H]1c1ccc(Cl)cc1	1.0%	-1	0.9	-2	.	1.8
Cc1cc(C(=O)OCC(=O)N(C)c2ccccc2)c2ccccc2n1	3.4%	1	2.5	-15	0	5.1
O=C(CCCN=C1NS(=O)(=O)c2ccccc21)Nc1ccc(Cl)cc1	1.5%	-6	-0.5	-1	-14	-2.3
CCN(Cc1ccccc1)S(=O)(=O)c1c(N)n(C)c(=O)n(C)c1=O	0.6%	9	0.0	-7	6	5.3
CN(C)CCCN(C(=O)c1ccc2c(c1)CCCC2)c1nc2c(F)cccc2s1	-4.4%	-23	1.5	7	-10	11
COc1ccc(N2C(=O)N3[C@H](c4ccc(Cl)cc4)[C@@H]4C(=O)N(C5CCCCC5)C(=O)[C@@H]4[C@]3(Cc3ccc(Cl)cc3)C2=O)cc1	-0.2%	-3	-0.3	43	-8	-2.5
COc1ccc(Nc2nc(N)nc(CN3CCN(c4ccc(F)cc4)CC3)n2)cc1	5.5%	-24	-0.7	-8	5	7.2

(list continues)
molecule	PINK1 modulator	Six1-Eya2 blk	TRPML1 ag	TRPML1 blocker	D2 PAM	D2 ag
Cc1cc(NC(=O)c2ccc(F)cc2F)n(-c2nc3ccccc3[nH]2)n1	?	4	1.4	5	-11	-2.4
N#Cc1nc(COc2ccc(Cl)cc2)oc1NCc1ccc2c(c1)OCO2	1.7%	-23	0.4	5	-3	-3.1
CCOc1ccc(C2C(=O)N(C3CCCCCC3)CC(=O)N2CCc2ccccc2)cc1OC (stereo unspecified)	0.2%	.	2.0	30	.	.
CN(CCC#N)Cc1cc(=O)oc2ccc3ccccc3c12	0.4%	-15	-0.6	1	-4	-0.3
CN(C)/C=C1\C(=O)ON=C1c1ccccc1	1.5%	12	-0.7	0	-2	-1.9
COC(=O)c1ccccc1NC(=O)CCCn1c(C)c2cnn(-c3ccccc3)c(=O)c2c1C	-0.3%	.	-0.7	1	.	.
COc1cccc(C(=O)NCCCNC(=O)c2ccccn2)c1	1.2%	0	0.6	-13	-1	9.3
COC(=O)c1ccccc1NC1OC(=O)c2ccccc21 (stereo unspecified)	-0.4%	4	-0.1	13	1	0.0
COC(=O)[C@@H]1CC[C@@](C)(c2ccc(OC)cc2)C1(C)C	18%	17	0.7	4	-5	-0.4
Cc1ccc(CCNC(=O)c2c3c(nc4ccccc24)C(=O)N(C2CCCCC2)C3)cc1	1.2%	.	1.7	6	.	.

Carrying on.
molecule	PINK1 modulator	Six1-Eya2 blk	TRPML1 ag	TRPML1 blocker	D2 PAM	D2 ag
Cc1cc(OCC(=O)Nc2ccncc2)c(C)cc1Br	-3.9%[38.3 µM]	-1	4.2	61	-12	-3.0
CC(C)n1c(=S)[nH]c2scc(-c3cccs3)c2c1=O	0.8%	-7	.	.	2	3.4
Cc1onc(-c2ccc(Cl)cc2)c1-c1ccnn1S(=O)(=O)c1ccc(Cl)cc1	6.2%	-1	0.2	-2	-12	-0.9
Cc1cc(Cl)ccc1Oc1ncc(-c2ccc(Cl)cc2)cn1	8.7%	17	3.4	41	13	0.3
COc1cccc(-n2nnnc2SCC(=O)Nc2ccc(NC(C)=O)cc2)c1	4.3%	-3	-0.4	5	-4	-4.5
Cc1cc(C)n(-c2nnc(Nc3ccc(C)c(Cl)c3)c3ccccc23)n1	1.1%	.	-0.5	7	.	.
Cc1ccc(CN2C(=O)c3ccccc3C2c2nnnn2C(C)C)cc1 (stereo unspecified)	0.4%	11	-0.6	.	.	.
O=C(Nc1ccc2nc(SCCOc3ccccc3)sc2c1)c1ccccc1F	4.6%	.	-0.9	15	.	.
COc1ccc(C(=O)CN2C(=O)c3ccccc3C2=O)cc1	1.5%	4	0.9	6	-17	2.9
CC(OC(=O)c1ccc(S(=O)(=O)NCc2ccco2)cc1)C(=O)Nc1ccc(Cl)cn1 (stereo unspecified)	11%	-10	0.0	8	2	0.0

(cont.)
molecule	PINK1 modulator	Six1-Eya2 blk	TRPML1 ag	TRPML1 blocker	D2 PAM	D2 ag
OCCN1CCN(CCSc2ccccc2)CC1	3.2%	4	2.2	-4	-7	0.4
COCCCn1c(=O)c2ccccc2n(CC(=O)NC2CCCC2)c1=O	2.9%	12	0.1	1	1	-4.1
CCN(CC)CC(O)c1cccn1-c1ccc(CNC(=O)NC(C)C)cc1 (stereo unspecified)	-1.0%	-12	2.7	-11	-3	-0.6
CC(=O)Nc1cccc(NC(=O)Cc2nc(-c3ccccc3)sc2-c2ccc(C)cc2)c1	1.0%	-4	0.7	0	-7	0.3

Screens deposited in PubChem by National Center for Advancing Translational Sciences (NCATS).
